High-throughput results as filed in PubChem.
Env fusion inh: inhibitors of HIV Env-mediated cell fusion | HeLa-JRFL Env/CEM21 cell fusion, luciferase | inhibition, % at 12.3 µM | 1.1% of 360,000 active | AID 651610;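 active = mean replicate inhibition score of at least 50 and every replicate individually at or above 50; inconclusive = only one of the two criteria met; inactive = mean below 50 and not all replicates reaching 50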;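 note: 0% = plate neutral controls and 100% = maraviroc near 300 nM; one replicate is shown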
eIF4H inh: inhibitors of RNA binding by human eIF4H; eIF4H fluorescence polarization binding assay; inhibition, % at 35 µM; 0.94% of 290,000 active;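 active = 50% or more with normal probe brightness, or confirmed in later tests; inconclusive = above 50% with abnormal brightness, or retests that disagree; inactive = below 50% or failed in later tests; about a fifth of its hits are not listed in these tables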;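 note: calls also rest on retests at 20 µM and on dose response follow-up; 0% = protein and probe with vehicle and 100% = probe without protein; strong numbers were not always called active; many hits fall short of the cut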
PABP polyA inh: blocks human PABP binding to poly(A) RNA; fluorescence polarization; P11940; 1% of 290,000 active; inhibition, % at 35 µM;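 active = 50% or more with normal probe brightness, or confirmed in later tests; inconclusive = above 50% with abnormal brightness, or retests that disagree; inactive = below 50% or failed in later tests; about a fifth of its hits are not listed in these tables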;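 note: calls also rest on retests at 20 µM and on dose response follow-up; controls were probe without protein and protein plus probe with vehicle; some compounds called inactive have numbers as strong as hits; many hits fall short of the cut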
CSC inhib: cancer stem cell inhibition; inhibition, % at 7.5 µM; 1.1% of 300,000 active; cancer stem cell-like cells viability, luminescence; AID 2717;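 active = mean at 75% or more and at least half the replicates too; inconclusive = mean and replicates disagree; tested in HMLE shEcad cells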;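 note: 0% = median of negative and 100% = median of positive control wells; the first replicate is given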
UUG fidelity: yeast start codon fidelity modulation | S. cerevisiae UUG-firefly luciferase reporter, luminescence/redox ratio | activity score, % at 18.7 µM | 0.13% of 350,000 active;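 active = replicate mean at a twofold rise or more, about +100% in these data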;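 note: firefly luciferase made from a UUG start codon reports start codon fidelity; reporter light over untreated wells divided by growth signal over untreated wells; some hits fall short of that in this replicate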
MT1-MMP act inh: blocks activation of human MT1-MMP. HT1080 RFP-PRO-GFP cells, GFP/RFP ratio fluorescence, overnight; percent of plate control window, DMSO zero. GFP/RFP ratio change, % at 20 µM. 0.061% of 360,000 active. AID 651647;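 active = GFP/RFP ratio change of at least 30% with cell ATP level not reduced by more than half and red fluorescence within 50% of control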; note: strong numbers were not always called active
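Assay system: HT1080 RFP-PRO-GFP cells | Dosing: 20 µM single dose, 1% DMSO | Incubation: Cells overnight before dosing, compound overnight, 37 °C, 5% CO2 | Evaluation: GFP/RFP fluorescence ratio | Control set: DMSO-only wells and HT1080 RFP-L50D-GFP cell wells as references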
Rce1 inhib: inhibitors of yeast Ras-converting enzyme; Q03530; yeast membranes, quenched prenylated peptide cleavage fluorescence; calls only; 0.27% of 290,000 active; AID 2563;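 active = fall in fluorescence gain of 50% or more versus controls, with final raw signal at or below 3038400; inconclusive = same 50% fall but final raw signal above 3038400; inactive = fall in fluorescence gain under 50%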;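 note: plate controls were neutral control wells for no effect and wells lacking membranes for full effect; tested at 10 µM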
Target sequence (Q03530 whole entry, looked up): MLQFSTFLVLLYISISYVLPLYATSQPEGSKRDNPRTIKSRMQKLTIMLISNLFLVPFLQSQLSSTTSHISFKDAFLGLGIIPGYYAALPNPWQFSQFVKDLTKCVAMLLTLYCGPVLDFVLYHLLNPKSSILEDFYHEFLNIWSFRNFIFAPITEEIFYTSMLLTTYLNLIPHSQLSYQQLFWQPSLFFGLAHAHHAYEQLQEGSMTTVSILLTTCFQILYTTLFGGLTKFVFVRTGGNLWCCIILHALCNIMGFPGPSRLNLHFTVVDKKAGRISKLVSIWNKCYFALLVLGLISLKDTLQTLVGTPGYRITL
eIF4H inh retest: recorded beside eIF4H inh, whose call it bears; inhibition, %; compound at 20 µM; confirmation average;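 mean of two retest wells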
PABP polyA inh retest: also measured in PABP polyA inh; calls as there; inhibition, %; compound at 20 µM; confirmation repeats;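 mean of two retest wells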
MT1-MMP act inh RFP: second read-out of MT1-MMP act inh, no call of its own (marks repeat the call); RFP signal change, %; measured here: RFP expression control read;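 0 = vehicle wells; hits needed this value within 50% of zero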
An asterisk follows results filed as active; i = inactive; ? = inconclusive; / = no result given; & = joins results of further samples.

SMILES | Env fusion inh | eIF4H inh | PABP polyA inh | CSC inhib | UUG fidelity | MT1-MMP act inh | MT1-MMP act inh RFP | Rce1 inhib | others
CC(c1nnc(SCC(=O)NC(=O)NCc2ccco2)n1-c1ccc(Cl)cc1)N(C)C (stereo unspecified) | / | 18 | 14 | -1 | -1 | -2 | 6 | i
CCc1ccc(-c2nc(CS(=O)CC(=O)NCCCN3CCC(C)CC3)c(C)o2)cc1 (stereo unspecified) | 15 | 7 | -1 | -14 | -17 | 3 | 2 | i
CCOCCCNc1nc2c(c(=O)[nH]c(=O)n2C)n1CCCc1ccccc1 | -37 | 8 | -3 | 3 | -2 | 11 | 2 | i
C=CCOc1ccccc1CN(CCc1ccccc1)C(=O)c1cccc(S(C)(=O)=O)c1 | 17 | 3 | 10 | -11 | 8 | -1 | -2 | i
O=C(CN(c1cc(C(F)(F)F)ccc1Cl)S(=O)(=O)c1ccccc1)NCc1cccnc1 | 85* | -3 | -6 | -1 | 1 | -2 | 2 | /
Cc1ccc2oc(=O)c(/C=C(\O)c3sc(C)nc3C)nc2c1 | / | ? | -2 | 1 | / | -2 | -1 | i
CN1C(=O)N(C)c2ccc(C=O)c3cccc1c23 | -13 | ? | -8 | -8 | / | -8 | -3 | i
COc1ccc(NC(=O)CN(C)C(=O)c2cnc(Cl)c(Cl)c2)cc1 | 6 | -5 | 4 | -8 | 1 | -2 | 0 | i
Cc1ccc(S(=O)(=O)N2CCCCC2)cc1NC(=O)c1ccccc1Cl | -2 | / | / | 8 | -8 | 4 | 0 | /
CCC(=O)Nc1cccc(C2=NOC3(C2)C[C@H](C(N)=O)N(C(=O)CC#N)C3)c1 (stereo partly specified) | -31 | 1 | 10 | 0 | -6 | 1 | 4 | i
O=S(=O)(c1ccccc1)N1CCN=C1SCc1cccnc1 | -6 | -12 | 3 | -14 | / | 4 | 1 | i
NS(=O)(=O)c1ccc(NC(=O)c2ccc(-c3ccccc3)cc2)cc1 | 0 | 60 | 3 | / | / | 4 | 4 | / | eIF4H inh retest=16;PABP polyA inh retest=12
O=S(=O)(c1ccccc1)N1CCN(S(=O)(=O)c2ccc(F)cc2)CC1 | 13 | -6 | -3 | -10 | -1 | 1 | 2 | i
COc1ccc(Oc2ncccc2[N+](=O)[O-])cc1 | -3 | 6 | 5 | -10 | -17 | 0 | 2 | i
CC1=NN(c2ccccc2)C(=O)/C1=C/N(C)C | -1 | -1 | 12 | -10 | -14 | 0 | 2 | i
Cc1c([N+](=O)[O-])c([N+](=O)[O-])nn1CC(=O)N1CCOCC1 | 20 | -4 | -8 | / | / | -1 | 2 | i
CCC(C)NC(=O)c1ccc(NC(=O)C2=C(C)OCCS2)cc1 (stereo unspecified) | 12 | 0 | 4 | -5 | -11 | 6 | 2 | i
CCc1nnc(NC(=O)CSc2nc(C)c3c(c2C#N)CCCC3)s1 | / | -2 | 7 | -16 | -6 | 5 | -3 | i
O=C(Nc1ccon1)c1ccc2c(c1)OCO2 | / | 0 | 14 | 2 | / | 3 | 2 | i
O=C(NCCN1CCOCC1)c1ccc2c(c1)N(Cc1ccccc1F)C(=O)c1ccccc1S2(=O)=O | -7 | -8 | -1 | / | -1 | 1 | 6 | i
COC(=O)c1ccccc1NC(=O)c1ccco1 | / | -6 | -2 | -11 | 50 | -2 | 3 | /
O=C(O)c1ccccc1SCC(=O)N1c2ccccc2Sc2ccccc21 | / | 3 | 17 | 4 | -9 | -2 | 3 | i
COCC(C)n1c(SCC(=O)N2CC(=O)Nc3ccccc32)nc2ccccc2c1=O (stereo unspecified) | / | / | / | -9 | -4 | -3 | -3 | /
C[C@@H]1CCCCO[C@H](CN(C)C(=O)Nc2cccc3ccccc23)[C@@H](C)CN([C@H](C)CO)C(=O)c2cc(N(C)C)ccc2O1 | -23 | / | / | / | -3&10 | -1 | -9 | /
CC(=O)Nc1ccc(C)cc1NC(C)=O | ? | -5 | 0 | -4 | / | 2 | 3 | i

Next section (2 carried over from the part before).
SMILES | Env fusion inh | eIF4H inh | PABP polyA inh | CSC inhib | UUG fidelity | MT1-MMP act inh | MT1-MMP act inh RFP | Rce1 inhib | others
C[C@@H]1CCCCO[C@H](CN(C)C(=O)Nc2cccc3ccccc23)[C@@H](C)CN([C@H](C)CO)C(=O)c2cc(N(C)C)ccc2O1 | -23 | / | / | / | -3&10 | -1 | -9 | /
CC(=O)Nc1ccc(C)cc1NC(C)=O | ? | -5 | 0 | -4 | / | 2 | 3 | i
Cn1c(SCC(=O)NC2CC2)nnc1-c1cccs1 | 18 | 2 | 0 | 1 | -17 | -2 | 4 | i
O=C(Nc1ccc(F)cc1)c1ccccc1F | / | -6 | 0 | 7 | / | -4 | -4 | i
COC(=O)CC(NC(=O)c1ccco1)c1cccc2ccccc12 (stereo unspecified) | -126 | -7 | -14 | 3 | 3 | 0 | 1 | i
CS(=O)(=O)N1CCN(C(=O)NC2CCCCC2)CC1 | 15 | -1 | 2 | -15 | / | 13 | 7 | i
Cc1[nH]cnc1CN1CCc2c(c3ccccc3n2C)C1=O | / | / | / | -11 | -5 | -1 | -2 | i
C=CCn1c(Cc2cccs2)nnc1SCC(=O)Nc1cccc(OC)c1 | -53 | 39 | -1 | -5 | -16 | 2 | 3 | i
COc1ccc(CCn2c(=O)c3cccnc3n(Cc3cccc([N+](=O)[O-])c3)c2=O)cc1OC | 27 | -12 | 5 | -9 | / | -2 | -4 | i
CC1CCN(CCCCOc2ccccc2-c2ccccc2)CC1 | / | -10 | -3 | 31 | 3 | 1 | -2 | i
CCN1CCN(C(=O)N(c2ccccc2)c2ccccc2)CC1 | -11 | 12 | 6 | -5 | -18 | -6 | 2 | i
Cn1cnc2c(NCc3ccco3)ncnc21 | / | -2 | 7 | -13 | 0 | 9 | 8 | i
COc1ccc(CCNC(=O)c2cc3c(=O)n(C)c4ccccc4c3n2C)cc1OC | -7 | -6 | -6 | / | 10 | 2 | -2 | i
O=C1C(O)CCN1C1CCCCC1 (stereo unspecified) | 3 | / | / | / | -16 | 1 | 3 | /
CCCc1nnc(SCC(=O)Nc2cccc(C(F)(F)F)c2)o1 | 9 | -8 | 1 | -4 | / | 1 | 3 | i
COc1ccc(NC(=O)CN(C)C(=O)C(C)N2C(=O)c3ccccc3C2=O)cc1 (stereo unspecified) | -9 | / | / | -2 | / | 1 | 6 | i
Cc1ccccc1S(=O)(=O)c1c(C)cc(C)n(C)c1=O | 3 | 5 | -4 | -6 | / | 0 | 4 | i
COc1cc2c(cc1OC)C(C)N(CCN1C(=O)c3ccccc3C1=O)CC2 (stereo unspecified) | 4 | -6 | -8 | -11 | / | 3 | 5 | i
COc1ccccc1N1CCN(/N=C\c2ccccc2)CC1 | -35 | -5 | 2 | -5 | -12 | 5 | -2 | i
CCCCN1C(N)=NC[C@@H]1CC1CCCCC1 | -234 | / | / | 13 | -19 | 2 | -1 | i
O=C(c1ccccc1)N1CCN(Cc2ccccc2Br)CC1 | 1 | -3 | 7 | / | -17 | 0 | 3 | /
Cc1[nH]n(-c2ccccc2)c(=O)c1-c1ccccc1 | / | 1 | 4 | 6 | -12 | 5 | 3 | i
CCC(C)Sc1nnc(NC(=O)c2ccco2)s1 (stereo unspecified) | 4 | / | / | -10 | -15 | -3 | -2 | i
CCOC(=O)c1c(NC(=O)CCl)sc(C(=O)N(CC)CC)c1C | -19 | -1 | -4 | -9 | -28 | 9 | 2 | i
Cc1ccc(N(CCC(=O)NC(C)(C)C)S(=O)(=O)c2ccc(C)cc2)cc1 | 0 | -4 | 0 | 0 | 14 | -1 | 0 | /
COc1ccc(CNC(=O)C2CCN(S(=O)(=O)N3CCC4(CC3)OCCO4)CC2)c(OC)c1 | / | 1 | -4 | 12 | 2 | 1 | 5 | i
CN(Cc1ccccc1F)C(=O)c1sccc1-c1ccccc1 | 0 | -12 | 0 | 10 | 0 | -4 | -2 | i

Entries above containing a cyano group (2):
SMILES | Env fusion inh | eIF4H inh | PABP polyA inh | CSC inhib | UUG fidelity | MT1-MMP act inh | MT1-MMP act inh RFP | Rce1 inhib | others
CCC(=O)Nc1cccc(C2=NOC3(C2)C[C@H](C(N)=O)N(C(=O)CC#N)C3)c1 (stereo partly specified) | -31 | 1 | 10 | 0 | -6 | 1 | 4 | i
CCc1nnc(NC(=O)CSc2nc(C)c3c(c2C#N)CCCC3)s1 | / | -2 | 7 | -16 | -6 | 5 | -3 | i

Next records follow:
SMILES | Env fusion inh | eIF4H inh | PABP polyA inh | CSC inhib | UUG fidelity | MT1-MMP act inh | MT1-MMP act inh RFP | Rce1 inhib | others
CC1(C)Cc2c(cnn2-c2ccccc2)C(NC(=O)c2ccc[n+]([O-])c2)C1 (stereo unspecified) | / | 10 | 6 | 1 | -19 | -1 | 2 | /
CC1(C)CC(NS(=O)(=O)c2ccc(F)cc2)CC(C)(C)N1 | -4 | -2 | -1 | -9 | -27 | -2 | 2 | /
CC[C@@H](C)C(NC(=O)OC(C)(C)C)c1cn([C@@H](CCCCNC(=O)OC(C)(C)C)C(=O)N2CCN(C(=O)OC(C)(C)C)CC2)nn1 (stereo partly specified) | 25 | -4 | 3 | -7 | 34 | 3 | -4 | i
CC1CCCCN1C(=O)CCn1c(=S)oc2ccccc21 (stereo unspecified) | -3 | -9 | 1 | 16 | / | 2 | 0 | i
COCCNC(=S)NNc1cccc(C(=O)O)c1 | 9 | -4 | -7 | -9 | -19 | 2 | -1 | i
CCc1ccccc1-n1nnc(-c2ccccc2)n1 | -7 | 2 | 12 | -10 | -15 | 1 | 2 | i
CCc1ccc(NC(=O)CSc2nc(=O)n(CCN(C)C)c3c2CCCC3)cc1 | -12 | / | / | 5 | / | -2 | 4 | i
CCOC(=O)Cn1c(=O)oc2cc(S(=O)(=O)N3CCCC(C)C3)ccc21 (stereo unspecified) | -2 | -11 | -2 | 7 | -32 | -5 | 1 | i
O=C(Cc1ccccc1)Nc1cccc(C(=O)N/N=C/c2ccco2)c1 | / | 0 | 2 | 2 | / | 0 | 3 | i
COc1ccccc1NC(=O)C(=O)NCC1CCCN1S(=O)(=O)c1cccs1 (stereo unspecified) | -2 | / | / | -9 | 4 | -2 | -2 | i
COc1ccc(-c2noc(CN3CCN(c4ccccc4)CC3)n2)cc1 | 16 | -4 | -8 | 2 | -6 | 0 | -5 | i
COc1cc(/C=C/C(=O)OCC(=O)Nc2cccc(Oc3ccccc3)c2)ccc1O | / | 1 | -12 | 2 | / | -2 | -6 | i
Clc1ccc(Nc2ncnc3c2nnn3Cc2ccccc2)cc1 | -12 | -1 | 1 | -3 | -12 | 2 | -5 | i
CCCCn1c(SCC(=O)OCC)nc2c(sc(=S)n2-c2ccccc2OC)c1=O | 10 | -2 | -10 | -8 | -14 | 3 | 3 | i

Reprinted at random: 2 compounds from above.
SMILES | Env fusion inh | eIF4H inh | PABP polyA inh | CSC inhib | UUG fidelity | MT1-MMP act inh | MT1-MMP act inh RFP | Rce1 inhib | others
COc1ccccc1NC(=O)C(=O)NCC1CCCN1S(=O)(=O)c1cccs1 (stereo unspecified) | -2 | / | / | -9 | 4 | -2 | -2 | i
COCCNC(=S)NNc1cccc(C(=O)O)c1 | 9 | -4 | -7 | -9 | -19 | 2 | -1 | i
